UUG fidelity – yeast start codon fidelity modulation; S. cerevisiae UUG-firefly luciferase reporter, luminescence/redox ratio; AID 602363; actives 0.13% (n = 350,000); activity score, % at 18.7 µM;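 active = replicate mean at a twofold rise or more, about +100% in these data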;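 note: firefly luciferase made from a UUG start codon reports start codon fidelity; reporter light over untreated wells divided by growth signal over untreated wells; some hits fall short of that in this replicate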
Starred values were filed as active, the others as inactive. Only part of the results is shown. The share of hits here may be higher or lower than overall.

SMILES	UUG fidelity
CN1C(=O)c2cc(NC(=O)Cc3cccs3)ccc2OC[C@@H]2O[C@@H](CC(=O)NCC3CCCCC3)CC[C@@H]21	3
CCCNC(=O)N(C)C[C@H]1N[C@@H](CO)[C@@H]1c1ccc(C2=CCCCC2)cc1	-5
O=C(NCc1ccc(F)cc1)[C@@H]1[C@@H](CO)[C@@H]2Cn3c(cccc3=O)[C@H]1N2Cc1cccnc1	-6
CO[C@@H]1CN(C)C(=O)c2cc(NC(C)=O)ccc2OC[C@@H](C)N(CCc2ccccc2)C[C@@H]1C	1
CO[C@H]1CN(C)C(=O)c2ccc(NC(C)=O)cc2OC[C@H](C)N(C(=O)CN2CCOCC2)C[C@H]1C	-7
C/C=C/c1ccc([C@H]2[C@@H](CN(C)C(=O)C3CC3)N(C(=O)C3CC3)[C@H]2CO)cc1	13
C[C@@H]1CN([C@H](C)CO)C(=O)c2cc(NC(=O)NC3CCCCC3)ccc2O[C@@H]1CN(C)S(=O)(=O)c1cn(C)cn1	1
O=C(C[C@H]1CC[C@H]2[C@@H](COC[C@H](O)CN2Cc2nccs2)O1)NCc1ccc(Cl)cc1	-12
CCCNC(=O)N1[C@H](CO)[C@@H](c2ccccc2)[C@@H]1CNC(=O)c1cccc(F)c1	9
Cn1cnc(S(=O)(=O)N2C[C@@H](O)COC[C@H]3O[C@@H](CC(=O)NCc4ccc(F)cc4)CC[C@@H]32)c1	-7
COc1ccc(NC(=O)N2C[C@H](O)COC[C@@H]3O[C@@H](CC(=O)N4CCN(C)CC4)CC[C@H]32)cc1	-3
C[C@@H]1CN([C@H](C)CO)C(=O)c2ccccc2-c2ccccc2CO[C@H]1CN(C)C(=O)Nc1ccccc1	8
COCC(=O)Nc1ccc2c(c1)OC[C@H](C)N(C(=O)c1cnccn1)C[C@@H](C)[C@H](OC)CN(C)C2=O	-9
O=C(Nc1ccc(F)cc1)N1CCCCN2[C@H](CO)[C@@H](c3ccc(C#Cc4ccccn4)cc3)[C@H]2C1	-3
CCC(=O)N1[C@H](CN(C)C(C)=O)[C@H](c2ccc(-c3cccnc3)cc2)[C@@H]1CO	16
O=C(Nc1cc(F)ccc1F)N1CCCCN2[C@H](CO)[C@H](c3ccc(-c4cncnc4)cc3)[C@H]2C1	8
C/C=C/c1ccc([C@@H]2[C@@H](CO)N(C(=O)CC)[C@@H]2CNC(=O)CC)cc1	-2
CCC(=O)N1[C@@H]2Cn3c(ccc(-c4ccccc4F)c3=O)[C@H]1[C@@H](C(=O)NC1CCC1)[C@@H]2CO	3
C[C@@H]1CN([C@H](C)CO)C(=O)CCCn2cc(nn2)CO[C@@H]1CN(C)S(=O)(=O)c1ccc2c(c1)OCCCO2	3
OC[C@H]1[C@@H](c2ccc(-c3ccc(F)cc3)cc2)[C@@H]2CN(CCC(F)(F)F)CCCCN12	1

Filtered by structure, the compounds so far with sulfur
SMILES	UUG fidelity
CN1C(=O)c2cc(NC(=O)Cc3cccs3)ccc2OC[C@@H]2O[C@@H](CC(=O)NCC3CCCCC3)CC[C@@H]21	3
C[C@@H]1CN([C@H](C)CO)C(=O)c2cc(NC(=O)NC3CCCCC3)ccc2O[C@@H]1CN(C)S(=O)(=O)c1cn(C)cn1	1
O=C(C[C@H]1CC[C@H]2[C@@H](COC[C@H](O)CN2Cc2nccs2)O1)NCc1ccc(Cl)cc1	-12
Cn1cnc(S(=O)(=O)N2C[C@@H](O)COC[C@H]3O[C@@H](CC(=O)NCc4ccc(F)cc4)CC[C@@H]32)c1	-7
C[C@@H]1CN([C@H](C)CO)C(=O)CCCn2cc(nn2)CO[C@@H]1CN(C)S(=O)(=O)c1ccc2c(c1)OCCCO2	3

Continuation.
SMILES	UUG fidelity
C[C@H]1CN([C@@H](C)CO)C(=O)c2cccc(NC(=O)c3nc4ccccc4s3)c2O[C@@H]1CN(C)C(=O)Nc1cccc2ccccc12	-9
CC(C)CN(C[C@@H]1N[C@@H](CO)[C@@H]1c1ccccc1)C(=O)CN(C)C	4
C[C@@H]1CN([C@H](C)CO)C(=O)c2cc(NC(=O)Nc3ccc(C(F)(F)F)cc3)ccc2O[C@@H]1CN(C)S(=O)(=O)c1cn(C)cn1	9
C[C@@H]1CN([C@H](C)CO)C(=O)CCCn2cc(nn2)CO[C@@H]1CN(C)C(=O)CCCN(C)C	30
CN(C)CCCNC(=O)C[C@H]1CC[C@H]2[C@@H](COc3ccc(NC(=O)C4CCC4)cc3C(=O)N2C)O1	-7
O=C(C[C@@H]1CC[C@H]2[C@@H](COC[C@H](O)CN2S(=O)(=O)c2ccc(F)cc2)O1)N[C@@H]1CCN(Cc2ccccc2)C1	2
COCC#Cc1ccc([C@H]2[C@@H](CO)N3CCCCN(S(=O)(=O)c4cccc(OC)c4)C[C@@H]23)cc1	1
COc1ccccc1C#Cc1ccc([C@H]2[C@@H](CO)N3CCCCN(CCC(F)(F)F)C[C@@H]23)cc1	25
O=C(c1ccccn1)N1CC[C@H]2[C@H](CO)Nc3ccc(C#Cc4cccnc4)cc3[C@H]21	13
COC(=O)C[C@H]1CC[C@H]2[C@@H](COc3ccc(NC(=O)Nc4c(C)noc4C)cc3C(=O)N2C)O1	0
C/C=C/c1ccc([C@@H]2[C@@H](CO)N(C(=O)C3CC3)[C@H]2CN(C)C(=O)C2CC2)cc1	6
O=C(C1CC1)N1C[C@H]2[C@@H](c3ccccc31)[C@@H](CO)N2S(=O)(=O)c1ccccc1	-6
COc1ccc(C#Cc2ccc([C@H]3[C@H](CO)N4CCCCN(C(=O)Nc5cccc(F)c5)C[C@@H]34)cc2)cc1	18
CN(C)C(=O)c1ccc(-c2ccc3c(c2)[C@H]2[C@H](CCN2C(=O)C2CCOCC2)[C@H](CO)N3C)cc1	3
CO[C@@H]1CN(C)C(=O)c2ccc(NC(=O)c3cccc(F)c3)cc2OC[C@H](C)N(C)C[C@H]1C	10
CCC(=O)N1CCCCN2[C@H](CO)[C@@H](c3ccc(/C=C/c4ccccc4)cc3)[C@H]2C1	2
C[C@@H]1CN([C@H](C)CO)C(=O)c2cc(NC(=O)CCN3CCOCC3)ccc2O[C@@H]1CN(C)Cc1ccc(C(=O)Nc2ccccc2N)cc1	-4
C[C@H]1CN([C@@H](C)CO)C(=O)c2cccc(NC(=O)Nc3ccc(F)cc3)c2O[C@H]1CN(C)Cc1ccc(Oc2ccccc2)cc1	5
Cc1ccc(-c2ccc([C@H]3[C@@H](CO)N4CCCCN(C(=O)Nc5ccccc5)C[C@@H]34)cc2)cc1	3
CCC(=O)N1[C@@H](CO)[C@@H](c2ccccc2)[C@@H]1CN(CC)C(=O)c1ccccc1	2

An excerpt from above in order of length of the SMILES, lowest first:
SMILES	UUG fidelity
O=C(c1ccccn1)N1CC[C@H]2[C@H](CO)Nc3ccc(C#Cc4cccnc4)cc3[C@H]21	13
COc1ccccc1C#Cc1ccc([C@H]2[C@@H](CO)N3CCCCN(CCC(F)(F)F)C[C@@H]23)cc1	25
COCC#Cc1ccc([C@H]2[C@@H](CO)N3CCCCN(S(=O)(=O)c4cccc(OC)c4)C[C@@H]23)cc1	1
O=C(C[C@@H]1CC[C@H]2[C@@H](COC[C@H](O)CN2S(=O)(=O)c2ccc(F)cc2)O1)N[C@@H]1CCN(Cc2ccccc2)C1	2

The results go on.
SMILES	UUG fidelity
CC1C=NC(S(=O)(=O)N2CC[C@@H]3[C@H](CO)N(C)c4ccc(-c5ccccc5)cc4[C@@H]32)=N1 (stereo partly drawn)	5
C[C@@H]1CN([C@H](C)CO)C(=O)c2cc(NC(=O)Nc3cccc4ccccc34)ccc2O[C@@H]1CN(C)C(=O)Nc1ccc(C(F)(F)F)cc1	-13
O=C(Nc1cccc(F)c1)N1CCCCN2[C@H](CO)[C@H](c3ccc(C#CC4CC4)cc3)[C@@H]2C1	18
CCC(=O)N1CC[C@@H]2[C@H]1c1cc(C#Cc3ccc(OC)cc3)ccc1N[C@@H]2CO	-17
O=C(c1cccc(F)c1)N1CCCCN2[C@H](CO)[C@@H](c3ccc(-c4cccnc4)cc3)[C@@H]2C1	-2
Cc1cccc(S(=O)(=O)N2CC[C@@H]3[C@@H](CO)Nc4ccc(C#Cc5ccccc5F)cc4[C@@H]32)c1	-13
CC(=O)NC[C@@H]1[C@H](c2ccccc2)[C@H](CO)N1C(=O)Cc1cccnc1	-7
C[C@H]1CN([C@@H](C)CO)C(=O)c2cc(NC(=O)CCN3CCOCC3)ccc2O[C@@H]1CN(C)C(=O)Nc1ccc(C(F)(F)F)cc1	1
O=C(c1ccc(F)cc1)N1CCCCN2[C@H](CO)[C@H](c3ccc(-c4ccccc4)cc3)[C@H]2C1	-8
CN(C)CCCNC(=O)C[C@H]1CC[C@H]2[C@@H](COc3ccc(NC(=O)c4ccccc4F)cc3C(=O)N2C)O1	-1
CO[C@@H]1CN(C)C(=O)c2cc(NC(=O)c3ccc(F)cc3)ccc2OC[C@H](C)N(C(C)=O)C[C@@H]1C	2
COCCNC(=O)C[C@@H]1CC[C@@H]2[C@@H](COc3ccc(NC(=O)Nc4cccc(F)c4)cc3C(=O)N2C)O1	4
CO[C@@H]1CN(C)C(=O)c2cc(NC(=O)c3cnccn3)ccc2OC[C@H](C)N(C(C)=O)C[C@@H]1C	2
O=C(C[C@@H]1CC[C@@H]2[C@H](COC[C@H](O)CN2C(=O)c2ccccc2)O1)N1CCc2ccccc2C1	22
Cc1noc(C)c1NC(=O)Nc1ccc2c(c1)C(=O)N([C@H](C)CO)C[C@H](C)[C@H](CN(C)C(=O)Nc1cccc3ccccc13)O2	-34
COCC(=O)Nc1ccc2c(c1)C(=O)N(C)C[C@@H](OC)[C@H](C)CN(Cc1cccc(F)c1)[C@H](C)CO2	13
C/C=C/c1ccc([C@@H]2[C@@H](CO)N(C(C)=O)[C@@H]2CN(CC)C(=O)CN(C)C)cc1	-1
COCCNC(=O)C[C@H]1CC[C@H]2[C@H](COc3ccc(NS(=O)(=O)c4ccc(Cl)cc4)cc3C(=O)N2C)O1	5
C[C@H]1CN([C@@H](C)CO)C(=O)Cc2cc(NC(=O)Nc3cccc4ccccc34)ccc2O[C@@H]1CN(C)Cc1ccc(C(=O)O)cc1	-5
O=S(=O)(c1ccc(F)cc1)N1CCCCN2[C@H](C1)[C@@H](c1ccc(-c3cncnc3)cc1)[C@@H]2CO	-5
O=C(c1ccc2c(c1)OCO2)N1C[C@@H]2[C@H](c3ccccc31)[C@@H](CO)N2CC1CCCC1	5
CC(=O)NC[C@H]1[C@@H](c2ccc(-c3ccccc3F)cc2)[C@@H](CO)N1C(C)=O	-14
O=S(=O)(Cc1ccccc1)N1CCCCN2[C@@H](CO)[C@H](c3ccc(C#Cc4ccccc4)cc3)[C@@H]2C1	1
COc1ccc(C#Cc2ccc3c(c2)[C@@H]2[C@@H](CCN2C(=O)c2ccncc2)[C@@H](CO)N3C)cc1	-10
Cc1noc(C)c1NC(=O)N(C)C[C@@H]1Oc2c(NC(=O)c3ccncc3)cccc2C(=O)N([C@H](C)CO)C[C@H]1C	-4
Cc1ccc(S(=O)(=O)Nc2ccc3c(c2)C(=O)N([C@@H](C)CO)C[C@@H](C)[C@H](CN(C)C(=O)Nc2ccc(C(F)(F)F)cc2)O3)cc1	5
CN1C(=O)c2cc(NC(=O)c3cccc(F)c3)ccc2OC[C@H]2O[C@H](CC(=O)N3CCc4ccccc4C3)CC[C@H]21	-9
CCCN1C[C@H](C)[C@H](OC)CN(C)C(=O)c2cc(NC(=O)Nc3c(C)noc3C)ccc2OC[C@H]1C	-10
Cc1ccc(S(=O)(=O)N2C[C@H]3[C@@H](c4ccccc42)[C@@H](CO)N3Cc2cccnc2)cc1	-17
COc1ccc(NC(=O)N2CCCCN3[C@H](C2)[C@@H](c2ccc(C#Cc4ccccn4)cc2)[C@@H]3CO)cc1	17
C[C@@H]1CN([C@@H](C)CO)C(=O)c2c(c3ccccc3n2C)-c2ccccc2CO[C@@H]1CN(C)S(=O)(=O)c1ccc(C#N)cc1	0
CCNC(=O)C[C@H]1CC[C@H]2[C@@H](COC[C@@H](O)CN2C(=O)Nc2ccc3c(c2)OCO3)O1	2
CO[C@H]1CN(C)C(=O)c2cc(NC(=O)C3CC3)ccc2OC[C@@H](C)N(CC2CCOCC2)C[C@H]1C	-12
COCC(=O)NC[C@H]1[C@H](c2ccccc2)[C@H](CO)N1C(=O)c1ccccc1	-4
CC(C)C#Cc1ccc([C@@H]2[C@@H](CO)N3CCCCN(CC4CC4)C[C@@H]23)cc1	21
N#Cc1cccc(-c2ccc3c(c2)[C@@H]2[C@@H](CCN2C(=O)c2ccc4c(c2)OCO4)[C@H](CO)N3)c1	-9
O=C(NC1CCCC1)N1CCCCN2[C@H](CO)[C@@H](c3ccc(/C=C/c4ccccc4)cc3)[C@@H]2C1	-4
O=C(C1CCC1)N1CCCCN2[C@H](C1)[C@H](c1ccc(C#CC3CCCC3)cc1)[C@@H]2CO	16
CCCC(=O)Nc1ccc2c(c1)C(=O)N(C)[C@@H]1CC[C@H](CC(=O)NCC3CC3)O[C@@H]1CO2	-2
O=C(Cc1ccccc1)N1C[C@H]2[C@@H](c3ccccc31)[C@@H](CO)N2C(=O)C1CC1	96
Cn1cnc(S(=O)(=O)N2CCCCN3[C@H](C2)[C@@H](c2ccc(-c4ccc(F)cc4)cc2)[C@@H]3CO)c1	-11
O=C(c1ccncc1)N1C[C@@H]2[C@H](c3ccccc31)[C@@H](CO)N2C(=O)Nc1ccc(F)cc1	10
CS(=O)(=O)Nc1ccc2c(c1)[C@@H]1C[C@H](CC(=O)N3CCOCC3)O[C@@H](CO)[C@@H]1O2	-10
CCCC(=O)Nc1ccc2c(c1)C(=O)N(C)C[C@@H](OC)[C@H](C)CN(Cc1ccc(-c3ccccn3)cc1)[C@H](C)CO2	-2
C/C=C/c1ccc([C@@H]2[C@@H](CO)N(C(=O)COC)[C@@H]2CNC(=O)CC)cc1	-1
CO[C@H]1CN(C)C(=O)c2cc(NC(=O)C3CC3)ccc2OC[C@@H](C)N(CC2CCOCC2)C[C@@H]1C	-9
CN(C[C@H]1N[C@H](CO)[C@H]1c1ccc(-c2cccc(F)c2)cc1)S(C)(=O)=O	-10
CN1CCN(C(=O)C[C@@H]2CC[C@H]3[C@@H](COC[C@@H](O)CN3S(=O)(=O)c3cccc(Cl)c3)O2)CC1	-4

Screens (PubChem)
